From PubChem BioAssay
miR-21 FLuc – qHTS Assay for Modulators of miRNAs and/orActivators of miR-21 | HeLa miR-21 FLuc reporter, luciferase, 48 h | Potency, µM (series often up to 38.3 µM), without a hit: top-dose reporter change, positive = more light | 340,000 tested, under 10 active | AID 2288, 2010; active = well fitted rising curve with a large enough effect; inconclusive = small, poorly fitted or top-dose-only effect; inactive = no such curve, though single readings can be large or run the other way;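 also: % of control where 0% means no effect; miR-21 action dims this reporter so a rising signal means less miR-21 action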
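HeLa cells stably expressing CMV-driven firefly luciferase with a downstream miR-21 binding sequence, endogenously expressing miR-21, were treated with titrations (up to about 40uM final) for 48 hours at 37 degree Celsius. Luciferase luminescence was read after lysis.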
Rango complex inh – qHTS Assay for Inhibitors of Rango (Ran-regulated importin-beta cargo) - Importin beta complex formation; Potency, µM (titrated, usually from 92.2 µM), for inactives: at the highest dose inhibition of complex formation; actives 0.031% (n = 340,000); Rango CFP/YFP FRET sensor + importin beta, 45 min; active = rising FRET ratio curve, often small or poorly fitted; inconclusive = mostly compound fluorescence or quenching in the first reads; inactive = flat curves in all reads;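 also: potency is read from the fitted curve at half-maximal effect; 0% = DMSO wells and 100% = buffer wells lacking importin beta; nearly all actives have a fitted effect of over 15% in size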
Target sequence (Q14974 whole entry, looked up): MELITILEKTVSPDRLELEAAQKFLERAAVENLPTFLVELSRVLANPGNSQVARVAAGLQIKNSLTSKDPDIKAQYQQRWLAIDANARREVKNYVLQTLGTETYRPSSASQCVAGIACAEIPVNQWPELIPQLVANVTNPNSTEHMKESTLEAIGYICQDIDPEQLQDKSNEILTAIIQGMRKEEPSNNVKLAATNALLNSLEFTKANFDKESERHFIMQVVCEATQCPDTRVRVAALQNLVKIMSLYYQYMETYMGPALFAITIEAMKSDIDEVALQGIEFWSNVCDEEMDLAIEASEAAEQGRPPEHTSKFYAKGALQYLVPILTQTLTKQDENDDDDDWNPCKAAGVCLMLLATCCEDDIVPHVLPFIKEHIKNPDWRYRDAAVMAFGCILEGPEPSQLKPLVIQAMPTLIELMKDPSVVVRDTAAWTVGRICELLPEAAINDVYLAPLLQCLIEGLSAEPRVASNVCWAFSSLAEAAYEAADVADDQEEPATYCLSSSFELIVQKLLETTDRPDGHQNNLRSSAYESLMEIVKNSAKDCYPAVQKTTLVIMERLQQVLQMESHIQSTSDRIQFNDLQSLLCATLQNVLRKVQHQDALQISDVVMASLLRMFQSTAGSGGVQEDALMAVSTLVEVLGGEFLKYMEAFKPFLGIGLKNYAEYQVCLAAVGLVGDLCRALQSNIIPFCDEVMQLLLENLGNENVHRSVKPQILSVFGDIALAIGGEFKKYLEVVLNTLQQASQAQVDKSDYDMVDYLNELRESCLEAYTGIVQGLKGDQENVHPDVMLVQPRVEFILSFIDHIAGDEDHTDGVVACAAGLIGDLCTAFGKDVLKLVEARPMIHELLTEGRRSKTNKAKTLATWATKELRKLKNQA
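FRET biosensor Rango (snurportin 1 IBB between N-terminal EYFP and C-terminal Cerulean), 50 nM in PBS/1 mM DTT/0.02% Tween-20/0.1% BSA, preincubated 5 min RT with compound; 0.125 microM importin beta added, 45 min RT, CFP/YFP FRET ratio read.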
Rango dissoc inh – qHTS Assay for Inhibitors of RanGTP induced Rango (Ran-regulated importin-beta cargo) - Importin beta complex dissociation; Snurportin-1 (Homo sapiens) + GTP-binding nuclear protein Ran (Homo sapiens) + Importin …; Biochemical FRET Rango-importin beta, RanGTP-induced dissociation; Potency, µM (series often up to 46.1 µM), without a hit: at the highest dose activity change, negative = inhibition; actives 0.071% (n = 340,000); AID 540253, 2011; active means falling FRET ratio curve, often poorly fitted, with flat reads before Ran was added; inconclusive means other falling curves, or compound fluorescence or quenching; inactive means flat or rising ratio curve;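 also: potency is read from the fitted curve at half-maximal effect; % of control where 0% means no effect; nearly all actives have a fitted effect of over 45% in size; -100% = wells without RanGTP and RCC1; the record marks most hits as doubtful in a second field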
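Quantitative HTS using a FRET biosensor: 0.1 uM Rango, 0.25 uM importin beta, 0.6 uM Ran, 2 mM GTP, 0.2 uM RCC1 final, PBS with DTT, Tween-20 and BSA. Post-read taken 45 min after Ran addition.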
GLA inh pH 4.5 – qHTS Assay for Inhibitors of Human alpha-Galactosidase at pH 4.5 | Alpha-galactosidase A (Homo sapiens), P06280 | purified enzyme, 4-MU-alpha-Gal fluorescence, pH 4.5 | activity change, negative = inhibition, % at 105 µM | 230,000 tested, under 10 active; inconclusive = small, poorly fitted or top-dose-only inhibition, or a rising curve; inactive = flat fitted curve, though single readings scatter; no compound was filed as active;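 also: 0% = full activity with enzyme and -100% = basal without enzyme; dose as in the result columns while the protocol names 77 µM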
* = called active by the depositor.

How did O=C(/C=C/c1ccco1)Nc1ccc(Cl)c(S(=O)(=O)N2CCOCC2)c1 do in these assays?
miR-21 FLuc: 27%; Rango complex inh: 0.5%; Rango dissoc inh: 24%; GLA inh pH 4.5: -3

How did Cc1ccc(S(=O)(=O)CCC(=O)N(CCCN2CCOCC2)c2nc3ccccc3s2)cc1 do in these assays?
Rango complex inh: -0.7%; Rango dissoc inh: -27%

What do the screens show for `CCCc1cc(C(=O)Nc2ccc(C#N)cc2)no1`?
miR-21 FLuc: -7%; Rango complex inh: -5.1%; Rango dissoc inh: -19%

Results for CCN(CC)C(=O)N1CCc2ccccc2C1CN1C(=O)c2ccccc2C1=O (stereo not drawn) ?
Rango complex inh: 1.0%; Rango dissoc inh: 4%

Results for COc1ccc(C(=O)NNC(=O)CN2CCN(c3nc(-c4ccccc4)cs3)CC2)cc1 ?
miR-21 FLuc: 0%; Rango complex inh: -1.7%; Rango dissoc inh: -8%; GLA inh pH 4.5: 12

How did CCOC(=O)C1=C(C)NC(=O)NC1c1ccccc1 (stereo not drawn) do in these assays?
miR-21 FLuc: -1%; Rango complex inh: -0.2%; Rango dissoc inh: 10%; GLA inh pH 4.5: 4

What do the screens show for `O=C(CCN1CCCCCC1)Nc1cccc(F)c1`?
miR-21 FLuc: -2%; Rango complex inh: -1.0%; Rango dissoc inh: -7%; GLA inh pH 4.5: -3

How did O=C(O)c1ccc2c(c1)N(Cc1ccccc1F)C(=O)c1ccccc1S2=O (stereo not drawn) do in these assays?
miR-21 FLuc: -1%; Rango complex inh: 0.8%; Rango dissoc inh: -11%; GLA inh pH 4.5: 7

What do the screens show for `CCN1C(=O)/C(=C2/C(=O)N3c4c(cc(OC(C)=O)cc42)C(C)=CC3(C)C)SC1=S`?
miR-21 FLuc: 1%; Rango complex inh: 0.9%; Rango dissoc inh: -17%; GLA inh pH 4.5: 1

Results for Cc1cc(C)nc(NS(=O)(=O)c2ccc(N/C=C/C(=O)c3ccc(Cl)cc3)cc2)n1 ?
miR-21 FLuc: -26%; Rango complex inh: inconclusive; Rango dissoc inh: inconclusive; GLA inh pH 4.5: -17

Results for CCCN(CC(=O)Nc1ccccc1OC)C(=O)c1ccc2ncsc2c1 ?
Rango complex inh: 0.6%; Rango dissoc inh: -15%

How did Cc1ccccc1N1C(=O)C2CCCN2C1=S (stereo not drawn) do in these assays?
Rango complex inh: -3.0%; Rango dissoc inh: 5%

What do the screens show for `CCCn1c(N)c(C(=O)CN2CCc3ccccc3C2)c(=O)n(C)c1=O`?
miR-21 FLuc: -2%; Rango complex inh: -1.8%; Rango dissoc inh: -10%; GLA inh pH 4.5: -1

What do the screens show for `COc1ccccc1CNC(=O)C(C)NS(=O)(=O)c1ccccc1` (stereo not drawn)?
miR-21 FLuc: -7%; Rango complex inh: 2.2%; Rango dissoc inh: 1%; GLA inh pH 4.5: 1

How did COC(=O)C1=C(C)N(c2cc(C)cc(C)c2)/C(=C/c2ccc(O)cc2)C1=O do in these assays?
miR-21 FLuc: -1%; Rango complex inh: inconclusive; Rango dissoc inh: -2%; GLA inh pH 4.5: -6

How did O=C(Nc1ccccc1)Nc1csc2ccccc12 do in these assays?
miR-21 FLuc: -10%; Rango complex inh: -2.0%; Rango dissoc inh: 1%; GLA inh pH 4.5: -2

Results for CCN(CC)c1ccc(NC(=O)COC(=O)/C=C/c2nc3ccccc3s2)cc1 ?
miR-21 FLuc: -3%; Rango complex inh: inconclusive; Rango dissoc inh: 0%; GLA inh pH 4.5: 3

What do the screens show for `CN(C)C=C1C(=O)c2ccccc2C1=O`?
miR-21 FLuc: -42%; Rango complex inh: -3.5%; Rango dissoc inh: -8%; GLA inh pH 4.5: -4

How did Oc1ccc(N=Nc2ccc3c(c2)OCO3)c2ccccc12 do in these assays?
miR-21 FLuc: -59%; GLA inh pH 4.5: -3

What do the screens show for `CCCSc1nnc2nc(C)cc(C)n12`?
miR-21 FLuc: -10%; Rango complex inh: 1.4%; Rango dissoc inh: -4%; GLA inh pH 4.5: -3

Next part, starting with the last 2 of the part before.
How did Oc1ccc(N=Nc2ccc3c(c2)OCO3)c2ccccc12 do in these assays?
miR-21 FLuc: -59%; GLA inh pH 4.5: -3

What do the screens show for `CCCSc1nnc2nc(C)cc(C)n12`?
miR-21 FLuc: -10%; Rango complex inh: 1.4%; Rango dissoc inh: -4%; GLA inh pH 4.5: -3

What do the screens show for `CC(NC(=O)CN(C)S(=O)(=O)c1ccc(F)cc1)C1CC2CCC1C2` (stereo not drawn)?
Rango complex inh: -3.5%; Rango dissoc inh: 11%

What do the screens show for `CN(C)C(CNc1ccc(S(C)(=O)=O)cc1[N+](=O)[O-])c1ccccc1` (stereo not drawn)?
miR-21 FLuc: -3%; Rango complex inh: 2.1%; Rango dissoc inh: 3%

Results for O=C(C1CCN(S(=O)(=O)c2ccc(F)cc2)CC1)N1CC=C(c2ccccc2)CC1 ?
miR-21 FLuc: -7%; Rango complex inh: -7.0%; Rango dissoc inh: 3%; GLA inh pH 4.5: -15

What do the screens show for `CN(C)CC(CCC(CN(C)C)C(=O)c1ccccc1)C(=O)c1ccccc1` (stereo not drawn)?
miR-21 FLuc: inconclusive; Rango complex inh: -1.0%; Rango dissoc inh: 12%; GLA inh pH 4.5: -1

What do the screens show for `CCO[C@H]1OC(C(=O)N2CCCCCCC2)=C[C@@H](C)[C@@H]1CCCO`?
miR-21 FLuc: -4%; Rango complex inh: 2.5%; Rango dissoc inh: -6%; GLA inh pH 4.5: -1

What do the screens show for `COc1ccc(CC(=O)Nc2sc(Cc3ccccc3)c(C)c2C(N)=O)cc1`?
miR-21 FLuc: -16%; Rango complex inh: 0.5%; Rango dissoc inh: 0%; GLA inh pH 4.5: -15

Results for Cc1cccc(C)c1NC(=O)CC(NCc1ccco1)C(=O)O (stereo not drawn) ?
miR-21 FLuc: 1%; Rango complex inh: -0.3%; Rango dissoc inh: 1%; GLA inh pH 4.5: -13

Results for Cc1ccc(S(=O)(=O)N2CCCCC2)cc1NC(=O)COC(=O)C1CC2C=CC1C2 (stereo not drawn) ?
miR-21 FLuc: -7%; Rango complex inh: inconclusive; Rango dissoc inh: -18%; GLA inh pH 4.5: -2

Results for O=C(c1ccc(NC(=O)C2(c3ccccc3)CCOCC2)cc1)N1CCOCC1 ?
miR-21 FLuc: -8%; Rango complex inh: 4.4%; Rango dissoc inh: -3%; GLA inh pH 4.5: 3

How did COc1cccc(OCC(=O)Nc2c3c(nn2-c2ccccc2)CS(=O)(=O)C3)c1 do in these assays?
miR-21 FLuc: 0%; Rango complex inh: 3.2%; Rango dissoc inh: 4%

How did CCN(CC(=O)Nc1ccc(N2CCOCC2)cc1)Cc1nc2ccccc2c(=O)[nH]1 do in these assays?
miR-21 FLuc: -18%; Rango complex inh: 2.3%; Rango dissoc inh: 6%; GLA inh pH 4.5: 17

What do the screens show for `Cc1ccc(-c2nn(C(C)(C)C)c3ncnc(NS(=O)(=O)c4ccc([N+](=O)[O-])cc4)c23)cc1`?
miR-21 FLuc: 5%; Rango complex inh: -2.4%; Rango dissoc inh: -11%; GLA inh pH 4.5: -9

What do the screens show for `NC(=O)c1ccc(N=Cc2ccc([N+](=O)[O-])s2)cc1`?
miR-21 FLuc: inconclusive; Rango complex inh: 0.1%; Rango dissoc inh: -18%; GLA inh pH 4.5: -6

What do the screens show for `Cc1ccc(S(=O)(=O)N2[C@@H](c3ccc(Br)cc3)C(C(=O)O)=CC[C@H]2c2cccc(C)c2)cc1`?
Rango complex inh: 0.4%; Rango dissoc inh: -11%

How did CSCCC(NC(N)=O)C(=O)N(C)CC(=O)Nc1ccc(C)cc1 (stereo not drawn) do in these assays?
miR-21 FLuc: -5%; Rango complex inh: inconclusive; Rango dissoc inh: -8%; GLA inh pH 4.5: -3

What do the screens show for `CCOc1ccc(N2C(=O)CC(SCC(=O)O)C2=O)cc1` (stereo not drawn)?
miR-21 FLuc: 0%; Rango complex inh: 5.1%; Rango dissoc inh: -1%; GLA inh pH 4.5: 3

What do the screens show for `COc1ccc2cc(-c3ccsc3)ncc2c1`?
Rango complex inh: 0.9%; Rango dissoc inh: 5%

How did Cc1ccccc1OCCn1cnc2cc([N+](=O)[O-])ccc2c1=O do in these assays?
miR-21 FLuc: -4%; Rango complex inh: -2.7%; Rango dissoc inh: -13%; GLA inh pH 4.5: -27

What do the screens show for `N#CCC(=O)N/N=C/c1c(-c2ccccc2)n(-c2ccccc2)c2ccccc12`?
miR-21 FLuc: 9%; Rango complex inh: -2.9%; Rango dissoc inh: -9%

Results for CC(=O)Sc1nc(-c2ccccc2)[nH]c1S(=O)(=O)c1ccc(C)cc1 ?
miR-21 FLuc: 0%; Rango complex inh: 3.4%; Rango dissoc inh: 9%; GLA inh pH 4.5: 0

In the list so far, two have a Cl atom.
How did O=C(/C=C/c1ccco1)Nc1ccc(Cl)c(S(=O)(=O)N2CCOCC2)c1 do in these assays?
miR-21 FLuc: 27%; Rango complex inh: 0.5%; Rango dissoc inh: 24%; GLA inh pH 4.5: -3

Results for Cc1cc(C)nc(NS(=O)(=O)c2ccc(N/C=C/C(=O)c3ccc(Cl)cc3)cc2)n1 ?
miR-21 FLuc: -26%; Rango complex inh: inconclusive; Rango dissoc inh: inconclusive; GLA inh pH 4.5: -17

Additional records.
What do the screens show for `CCOC(=O)CCc1c(C)nc(SCCN2CCCC2)c(C#N)c1C`?
miR-21 FLuc: -8%; Rango complex inh: inconclusive; Rango dissoc inh: -13%; GLA inh pH 4.5: -17

What do the screens show for `CCOC(=O)N/N=C1\CCc2ccccc21`?
miR-21 FLuc: -61%; Rango complex inh: -1.0%; Rango dissoc inh: 23%; GLA inh pH 4.5: 0

What do the screens show for `Cc1nc(SC(C(N)=O)c2ccccc2)c(C#N)c(C)c1C` (stereo not drawn)?
miR-21 FLuc: -26%; Rango complex inh: -2.9%; Rango dissoc inh: -9%; GLA inh pH 4.5: 1

What do the screens show for `CCC(CC)C(=O)c1c[nH]c(C(=O)NCc2cccs2)c1`?
miR-21 FLuc: 0%; Rango complex inh: -3.4%; Rango dissoc inh: 0%; GLA inh pH 4.5: 6

Results for O=C1CCc2cc(S(=O)(=O)N3CCN(c4ccccc4F)CC3)ccc2N1 ?
miR-21 FLuc: 16%; Rango complex inh: 2.5%; Rango dissoc inh: -15%; GLA inh pH 4.5: 9

What do the screens show for `O=C1c2oc3ccc(Cl)cc3c(=O)c2C(c2ccco2)N1CCN1CCOCC1` (stereo not drawn)?
miR-21 FLuc: -6%; Rango complex inh: inconclusive; Rango dissoc inh: -22%; GLA inh pH 4.5: 1

What do the screens show for `C=CCn1c(CCCNC(=O)CCC)nc2ccccc21`?
miR-21 FLuc: -4%; Rango complex inh: 0.3%; Rango dissoc inh: -8%; GLA inh pH 4.5: 7

Results for COc1ccc(C2CC(=O)C(C=NCCN3CCOCC3)=C(O)C2)cc1 (stereo not drawn) ?
miR-21 FLuc: 0%; Rango complex inh: inconclusive; Rango dissoc inh: -4%; GLA inh pH 4.5: -1

How did O=C(N[C@@H](Cc1ccccc1)C(=O)N1CCN(S(=O)(=O)c2cccc(F)c2)CC1)c1ccco1 do in these assays?
Rango complex inh: 3.4%; Rango dissoc inh: 12%

Results for Cc1ccc(C(=O)N2CCN(C(=O)C3CCCO3)CC2)cc1 (stereo not drawn) ?
Rango complex inh: 1.5%; Rango dissoc inh: 7%

Results for Cc1cc(Br)cc(Cl)c1OC(=O)c1cnccn1 ?
miR-21 FLuc: -6%; Rango complex inh: 4.8%; Rango dissoc inh: -14%

What do the screens show for `CCOC(=O)c1cnc2ccc(OCC)cc2c1N1CCN(c2ccccc2)CC1`?
miR-21 FLuc: 16%; Rango complex inh: -0.4%; Rango dissoc inh: 1%; GLA inh pH 4.5: -13

These rows are one share of the data, so the mix of outcomes need not match the whole.
